Screening data as filed in PubChem BioAssay.
HTT prom inh = HTT promoter inhibition. actives 0.93% (n = 48,000). Potency, µM (titrated, usually from 57.5 µM), inactives show at the top dose activity change, negative = inhibition, most hits filed as inhibitors. AID 1508623. HEK293 HTT promoter firefly luciferase reporter (activity 0% = vehicle and -100% = no light), 24 h; active means well fitted inhibition curve with a large enough effect; inconclusive means small, poorly fitted or top-dose-only effect; inactive means no such curve, though single readings can be large or run the other way; further: nearly all actives have a fitted effect of over 50% in size
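Luminescence was read after Dual-Glo reagent and a 10 min room-temperature incubation. Values were normalized to vehicle (0% activity) and zero RLU (-100% activity). Reporter HEK293 cells had been exposed to compounds (up to 57.5 uM final) for 24 h.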
PMP22 txn = PMP22 gene transcription modulation | Potency, µM (series often up to 57.5 µM), for inactives: at the highest dose activity change, negative = inhibition, usual class: inhibitors | actives 2% (n = 43,000) | S16 Pmp22-F2sN Schwann cells (luciferase reporters placed in the Pmp22 gene), FLuc/NLuc coincidence luminescence, 24 h | AID 1508649; active = clear falling dose curves in both reporters; inconclusive = both reporters move, but less clearly or upward; inactive = either reporter flat; the % is the NLuc reporter signal; further: on the % scale 0 is the no-effect control and ±100 the full control effect; some results filed as inactive show a strong effect at the top dose
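Schwann cells carrying the coincidence reporter were exposed to library compounds for 24 h at 37C, then lysed and read for FLuc and, after quenching, NLuc luminescence on a CCD imager.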
The depositor's hits bear a star; ? = inconclusive; . = no result given; [ ] = remark or other dose. Potency means the concentration at half of the fitted maximal effect.

Sample of the layout (2 entries):
mol,HTT prom inh,PMP22 txn
Cc1ccccc1-c1nc(CS(=O)(=O)CC(=O)Nc2c(C)cccc2C)c(C)o1,?,-21%
Cc1cccc(NC(=O)c2cnn(-c3ccccc3)c2-n2cccc2)c1C,?,13µM*

All compounds of this part, repeating the preview:
mol,HTT prom inh,PMP22 txn
Cc1ccccc1-c1nc(CS(=O)(=O)CC(=O)Nc2c(C)cccc2C)c(C)o1,?,-21%
Cc1cccc(NC(=O)c2cnn(-c3ccccc3)c2-n2cccc2)c1C,?,13µM*
CC(C)(C)C(=O)NC1CC(=O)N(c2ccc3c(c2)OCCO3)C1 (stereo not given),-1%,-2%
COc1cc(-c2nc3sccn3c2Nc2c(C)cccc2C)ccc1O,-2%,-38%
CCOc1ccccc1CNC(=O)Cn1ncn2nc(-c3cccs3)cc2c1=O,-11%,-31%
CN(c1ccccc1C(=O)O)S(=O)(=O)c1ccc2[nH]c(=O)oc2c1,3%,-3%
CCOc1ccc(-c2nc(Cn3ccn4nc(-c5ccc(OCC)c(Cl)c5)cc4c3=O)c(C)o2)cc1,-8%,-20%
O=C(NC1CC(=O)N(c2ccc(Cl)cc2)C1)c1ccc(S(=O)(=O)N2CCCC2)cc1 (stereo not given),-18%,-17%
CCC1CN(C(=O)N2CCC(C(=O)NCc3ccc(N(C)C)cc3)CC2)c2ccccc2O1 (stereo not given),-28%,?
CC1Cn2c(C(=O)NCc3cccc(Br)c3)cc3cccc(c32)S1 (stereo not given),-11%,-11%

Complete entries, quoted from the list:
`O=C(NC1CC(=O)N(c2ccc(Cl)cc2)C1)c1ccc(S(=O)(=O)N2CCCC2)cc1` (stereo not given) reads HTT prom inh = -18%; PMP22 txn = -17%
`Cc1cccc(NC(=O)c2cnn(-c3ccccc3)c2-n2cccc2)c1C` reads HTT prom inh = ?; PMP22 txn = 13µM*

The main list resumes, repeating the two entries before the break.
mol,HTT prom inh,PMP22 txn
CCC1CN(C(=O)N2CCC(C(=O)NCc3ccc(N(C)C)cc3)CC2)c2ccccc2O1 (stereo not given),-28%,?
CC1Cn2c(C(=O)NCc3cccc(Br)c3)cc3cccc(c32)S1 (stereo not given),-11%,-11%
CCN(CC)CCCNC(=O)CCC(=O)NNc1nc2ccccc2c2nc(C)nn12,-4%,-14%
COc1cc2[nH]c(=O)n(Cc3ccc(C(=O)N4CCN(c5cccc(C)c5C)CC4)cc3)c(=O)c2cc1OC,-13%,-17%
Cc1nn(C)c2c1c(-c1ccccc1)cc(=O)n2Cc1ccc(F)cc1Cl,-18%,?
O=C(CCSCc1cccc(F)c1)NCCc1ccccc1,4%,-25%
CC(=O)N1CCCC1c1nc2ccccc2n1Cc1cccc(Cl)c1 (stereo not given),-6%,?
COc1ccc(NC(=O)c2ccc3c(=O)n4nc(Nc5cc(C)ccc5C)sc4nc3c2)cc1,?,?
CCCNC(=O)CSc1nc(-c2ccc(OC)cc2)cc(C(F)(F)F)n1,0%,0%
Cc1cc(C)c(NC(=O)CSc2nnc3[nH]c(=O)cc(C)n23)c(C)c1,-5%,-35%
O=C(NCCc1ccc(Cl)cc1)c1cc2c(s1)-c1ccccc1OC2,-12%,?
O=C1c2oc3ccccc3c(=O)c2C(c2ccccc2)N1Cc1ccc2c(c1)OCO2 (stereo not given),-15%,?
CCN1CCN(c2ncnc3c2cnn3-c2ccc(C)c(C)c2)CC1,-9%,?
COc1ccc(OCc2ccc(-c3nc(C#N)c(N4CCC(C)CC4)o3)o2)cc1,?,6.7µM*
COc1ccccc1NC(=O)CSC1=Nc2ccccc2C2=NC(CC(=O)NCc3ccc4c(c3)OCO4)C(=O)N12 (stereo not given),0%,?
COc1ccc(CCNc2nc(-c3ccc(OC)c(OC)c3)cc(C(F)(F)F)n2)cc1OC,?,?
CCOc1ccc(N(CC)S(=O)(=O)c2cc(Br)cc3c2N(C(C)=O)C(C)C3)cc1 (stereo not given),?,?
Cc1ccc(Cn2c(SCc3ccc(C(=O)N4CCCCC4)cc3)nc3ccncc32)cc1,13µM*,-54%
COC(=O)c1ccc(OC)c(Cn2c(=O)n(-c3ccc(C)cc3)c(=O)c3c2cnn3C)c1,?,-5%
Cc1c(C(=O)NCc2cccc(Cl)c2)sc2nc3n(c(=O)c12)CCCC3,20%,-15%
Cc1ccc(-c2nc(CSc3nncn4c3cc3occc34)c(C)o2)cc1,10%,-8%
Cc1ccc(C(=O)c2sc(Nc3ccccc3)c(S(=O)(=O)c3ccccc3)c2N)c(C)c1,-19%,-30%
COc1ccc(Nc2cc(C)nc(-n3nc(C)cc3C)n2)cc1Cl,13µM*,5.5µM*
CCOc1ccc(NC(=O)CN2CCSc3ccc(S(=O)(=O)N4CCCC4)cc32)cc1,25µM*,?
O=[N+]([O-])c1cc(-c2nc(-c3cccnc3)no2)ccc1NCc1ccccc1,-5%,-6%
Cc1ccc(-c2nc(C)c(CCNC(=O)C(=O)Nc3ccc4c(c3)OCCO4)s2)cc1,-6%,-38%
CCOc1ccc(CNS(=O)(=O)c2ccc3c(c2)CCCN3C(C)=O)cc1,?,-13%
COc1ccc(CCNC(=O)c2cc(=O)c3ccc(C)cc3o2)cc1OC,?,?
CCOC(=O)c1cc(-c2ccccc2)n(CCCC(=O)Nc2ccc(C(C)C)cc2)c1C,?,?
O=C(NCc1ccccc1Cl)c1ccc(CSCc2cccc(F)c2)o1,-15%,-32%
Cc1ccc(NC(=O)CSc2nnc(C)c(=O)[nH]2)cc1,-3%,-4%
Cc1cccc(C)c1NC(=O)Cn1c(=O)n(Cc2ccco2)c(=O)c2ccc(C(=O)NC3CCCC3)cc21,-14%,?
Cn1c(=O)oc2cc(S(=O)(=O)N3CCCC(C(=O)NCc4ccccc4Cl)C3)ccc21 (stereo not given),-15%,-30%
COc1ccc(-c2cc3ccc(O)c(CN4CCN(C)CC4)c3oc2=O)cc1OC,3%,5%
Cc1ccc(CNC(=O)CN2CCN(Cc3ccc(F)cc3Cl)C2=O)cc1,-1%,-23%
COc1ccc(C(=O)NCc2nc(-c3cccc(C)c3)no2)cc1OC,-18%,?
O=C(Nc1cccc(F)c1)c1ccc2c(c1)N(Cc1ccccc1)C(=O)c1ccccc1S2(=O)=O,-16%,-25%
CCOc1ccc(CCNC(=O)Cn2ccc3cc(S(=O)(=O)N4CCCCC4)ccc32)cc1,-30%,?
Cc1ccc2c(Cl)cc(Cl)c(O)c2n1,8%,.
CC1CCN(CC2CCN(C(=O)NCc3ccc(F)cc3)CC2)CC1,-5%,5%
COc1ccc(C(=O)Nc2ccccc2)cc1S(=O)(=O)Nc1ccc(Br)cc1,-26%,1%
CCCCc1nn2c(=O)cc(COC(=O)CNC(=O)COc3ccc(C)cc3)nc2s1,-27%,?
CCOc1cc2sc(N3CCC(C(=O)Nc4ccc(C)cc4C)CC3)nc2cc1Br,78%[activator],-15%
COc1ccc(NC(=O)CNC(=O)Cn2c(C)cc3ccccc3c2=O)c(OC)c1,-9%,-14%
Cc1ccc(Cl)cc1N1CCN(C(=O)c2cnn(-c3ccc(Cl)cc3)c2C2CCNCC2)CC1,-23%,?
CCC(=O)Nc1nnc2n1CCS2,-9%,6%
O=C(Nc1nc2ccccc2s1)c1ccc(S(=O)(=O)N2CCCC2)cc1,22%,-31%
Cc1ccc2c(c1)N(CC(=O)NCCc1ccccc1)C(=O)CO2,-11%,4%
O=C(NCc1ccc(F)cc1)c1cccc(N2CCCS2(=O)=O)c1,-29%,?
O=C(c1cnc(N2CCCCC2)c2ccccc12)N1CCN(c2cccc(Cl)c2)CC1,?,?
Cc1ccc(-n2ccnc(NCCc3ccc(S(N)(=O)=O)cc3)c2=O)c(C)c1,?,?
Cc1ccc(CSc2ccc3nnc(CCNS(=O)(=O)c4ccc(C)cc4)n3n2)cc1,-24%,?

Next structures
Each structure is followed by: HTT prom inh	PMP22 txn
> Cc1ccc2ncc3c(-c4ccccc4)nn(CC(=O)NC4CCCCC4)c3c2c1
 : -13%	31%
> COc1ccc(C2=C(C)C(=O)N(Cc3ccc(C(=O)NC(C)c4ccccc4)cc3)S2(=O)=O)cc1 (stereo not given)
 : -7%	-10%
> Cc1nc2c3ccccc3nc(NNC(=O)CCC(=O)N3CCN(c4cccc(Cl)c4)CC3)n2n1
 : -21%	?
> Cc1cc(C)cc(-n2cnc3cc(C(=O)NC4CCCCCC4)ccc32)c1
 : ?	?
> CCc1cccc(NC(=O)Cn2nc3c4cc(F)ccc4n(Cc4cccc(C)c4)cc-3c2=O)c1
 : -11%	-7%
> CCOC(=O)c1cccc(NC(=O)C(C)n2nc(C)c3c(C)n(-c4ccccc4)nc3c2=O)c1 (stereo not given)
 : ?	?
> COc1cccc(CNc2nc3ccccc3c3nc(-c4cccc(C)c4)nn23)c1
 : 25%	4%
> CCc1ccc(NC(=O)CSc2nc3c(c(=O)[nH]2)CN(Cc2ccc4c(c2)OCO4)CC3)cc1
 : -31%	-9%
> COCCNc1nc2c(c(=O)n(Cc3cccc(Cl)c3)c(=O)n2C)n1C
 : -4%	?
> Cc1cccc(N2CCN(C(=O)c3c(C)oc4ncnc(N5CCOCC5)c34)CC2)c1C
 : -4%	-23%
> COc1cc(OC)cc(C(=O)N2CC(=O)Nc3ccc(Cl)cc3C2c2ccccc2)c1 (stereo not given)
 : -11%	?
> O=C1Nc2ccccc2C1(c1ccc(O)cc1)c1ccc(O)cc1
 : -14%	.
> Cc1ccc(Nc2nc3ccc(C(=O)c4ccccc4)cc3n3c(C)nnc23)c(C)c1
 : 14%	1%
> CCOc1ccc(CCNC(=O)c2nn(C)c3c2CSc2ccccc2-3)cc1
 : -25%	-18%
> COc1cccc(-n2cc(C(=O)Nc3cc(OC)c(OC)c(OC)c3)c3ccccc3c2=O)c1
 : -6%	4%
> Nc1nonc1C(=O)NCCNCc1ccccc1F
 : -6%	4%
> CCc1nc(SC)ncc1C(=O)N1CCN(c2cc(C)ccc2C)CC1
 : -22%	-4%
> CCOC(=O)c1c(-c2ccccc2)csc1NC(=O)c1cc(-c2cccc(Cl)c2)on1
 : -5%	-11%
> Cc1cc2ccccc2n1-c1ccc(C(=O)N2CCC(C(=O)NCc3ccccc3Cl)CC2)s1
 : ?	-59%
> CC1CCN(CCCNC(=O)CN2C(=O)CSc3ccc(S(=O)(=O)N4CCC(C)CC4)cc32)CC1
 : -15%	-8%
> COc1cccc(Cn2c(=O)n(Cc3ccccc3)c(=O)c3c2c2cc(OC)ccc2n3C)c1
 : -6%	-14%
> COc1ccc(C2C(C(=O)Nc3ccc(C)cc3C)=C(C)Nc3nc(SCc4cccc(C)c4)nn32)c(OC)c1 (stereo not given)
 : -3%	-12%
> CCc1ccc(OCc2nc(-c3ccc(OC)c(OC)c3)no2)c(Br)c1
 : -21%	0%
> CCc1cccc(CC)c1NC1=NS(=O)(=O)c2ccccc21
 : -14%	?
> O=C1NC(NS(=O)(=O)c2ccccc2)(C(F)(F)F)C(=O)N1c1ccc(F)cc1 (stereo not given)
 : -6%	-19%
> Cc1oc2ncn(C)c(=O)c2c1C(=O)NC(C)c1ccccc1 (stereo not given)
 : -16%	0%
> CCCCNC(=O)C1CCN(c2nc3ccccc3nc2C(F)(F)F)CC1
 : -22%	-17%
> COc1cc([N+](=O)[O-])ccc1NC(=O)N1CCC2(CC1)Nc1ccccc1-n1cccc12
 : -7%	-10%
> COc1ccc(-c2cc(C(=O)NCc3cc(OC)c(OC)c(OC)c3)[nH]n2)cc1
 : -14%	-9%
> Cc1cccc(N2C(=O)C(CC(=O)Nc3cccc(F)c3)N(CCc3ccncc3)C2=O)c1 (stereo not given)
 : -10%	23%
> CCOC(=O)c1cnc2c(C)cc(C)cc2c1Nc1ccc(OCc2ccccc2)cc1
 : -25%	?
> O=C(Cn1c(=O)nc(-c2ccccc2)c2cc(Cl)ccc21)N1CCN(c2ccc(F)cc2)CC1
 : -4%	-6%
> O=C(CSc1nc2sc3c(c2c(=O)[nH]1)CCCC3)Nc1ccccc1F
 : -22%	?
> Cc1ccc2c(=O)c(C(=O)c3cccc(Cl)c3)cn(CC(=O)NC3CCCCC3)c2n1
 : -1%	-17%
> Cc1ccc(NC(=O)c2c(NC(=O)c3ccco3)sc3c2CCC(C(C)(C)C)C3)c(C)c1 (stereo not given)
 : -20%[11.5 µM]	-6%
> CCOC(=O)c1[nH]c(C)c(CCC(=O)Nc2cc(Cl)c(OC)cc2OC)c1C
 : ?	-66%
> CC1CCN(c2nc3c(S(=O)(=O)c4ccc(Cl)cc4)nnn3c3ccsc23)CC1
 : 4%	-20%
> CC(=O)c1cccc(NC(=O)c2nc(-c3ccc(C)cc3)n3c2CCCCC3)c1
 : ?	?
> COC(=O)CC1Oc2ccc(Cl)cc2-n2cc(-c3ccc(C)cc3)nc21 (stereo not given)
 : -3%	-18%
> CCc1ccc(NC(=O)CSc2nc3nccnc3c(=O)n2CCc2c[nH]c3ccccc23)cc1
 : -9%	?
> Cc1nn(Cc2noc(C(=O)NCc3cccc(F)c3)n2)c(C)c1Br
 : -10%	-4%
> Cc1oc2ncn(CC(C)C)c(=O)c2c1C(=O)N(Cc1ccccc1)C(C)C
 : -22%	?
> CCc1ccc(NC(=O)C(=O)NCCc2csc(-c3ccc(C(F)(F)F)cc3)n2)cc1
 : 7%	1%
> COc1cc2c(cc1OC)n(CC(=O)c1ccc(C)cc1)c(=O)n1nc(CCn3nc(C)cc3C)nc21
 : -10%	-16%
